D2 PAM: Beta-Arrestin HTS for Positive Allosteric Modulators of the Human D2 Dopamine Receptor: Potentiators; DiscoveRx D2 beta-arrestin cells, luminescence, 90 min; 100% = 57 uM dopamine signal; potentiation, % (no concentration beside the values); 360,000 tested, 0.23% active; D(2) dopamine receptor (Homo sapiens), P14416; active = potentiation of 50% or more; inconclusive = 30% to 50%; inactive = 30% or less;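 further: compound concentration not given in the record; tested on top of an EC20 dose of dopamine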
Target sequence (P14416 whole entry, looked up): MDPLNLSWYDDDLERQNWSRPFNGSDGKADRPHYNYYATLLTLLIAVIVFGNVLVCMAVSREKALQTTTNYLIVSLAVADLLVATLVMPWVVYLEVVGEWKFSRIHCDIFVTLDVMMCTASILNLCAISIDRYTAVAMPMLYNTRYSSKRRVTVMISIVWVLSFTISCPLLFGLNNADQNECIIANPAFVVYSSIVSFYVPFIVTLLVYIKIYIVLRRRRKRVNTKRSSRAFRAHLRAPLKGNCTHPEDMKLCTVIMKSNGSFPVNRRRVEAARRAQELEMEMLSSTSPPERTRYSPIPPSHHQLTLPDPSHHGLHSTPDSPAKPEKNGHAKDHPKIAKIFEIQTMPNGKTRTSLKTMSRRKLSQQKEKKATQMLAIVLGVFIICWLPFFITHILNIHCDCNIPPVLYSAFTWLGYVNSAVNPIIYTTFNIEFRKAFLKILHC
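PathHunter D2 cells, attached overnight at 37 deg C, received compound in DMSO plus dopamine at EC20 (50 nM final) for 90 min at 37 deg C. Beta-arrestin recruitment was read as luminescence after 1 h with detection reagent at ambient temperature.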
TRPML1 agonist: qHTS for Agonists of the Human Mucolipin Transient Receptor Potential 1 (TRPML1). TRPML1-expressing cells, Ca2+ dye fluorescence, FDSS; host cell line not named in the record; reference of the full effect not given here. activation, % (concentration not given with the values). 410,000 tested, 0.12% active. AID 624414, 2012; in the data active = activation above about 50%; inconclusive = about 30% to 50%; inactive = below about 30%; further: 0% is about no effect; the text of the record puts the active cut at 80%
Target sequence (Q9GZU1 whole entry, looked up): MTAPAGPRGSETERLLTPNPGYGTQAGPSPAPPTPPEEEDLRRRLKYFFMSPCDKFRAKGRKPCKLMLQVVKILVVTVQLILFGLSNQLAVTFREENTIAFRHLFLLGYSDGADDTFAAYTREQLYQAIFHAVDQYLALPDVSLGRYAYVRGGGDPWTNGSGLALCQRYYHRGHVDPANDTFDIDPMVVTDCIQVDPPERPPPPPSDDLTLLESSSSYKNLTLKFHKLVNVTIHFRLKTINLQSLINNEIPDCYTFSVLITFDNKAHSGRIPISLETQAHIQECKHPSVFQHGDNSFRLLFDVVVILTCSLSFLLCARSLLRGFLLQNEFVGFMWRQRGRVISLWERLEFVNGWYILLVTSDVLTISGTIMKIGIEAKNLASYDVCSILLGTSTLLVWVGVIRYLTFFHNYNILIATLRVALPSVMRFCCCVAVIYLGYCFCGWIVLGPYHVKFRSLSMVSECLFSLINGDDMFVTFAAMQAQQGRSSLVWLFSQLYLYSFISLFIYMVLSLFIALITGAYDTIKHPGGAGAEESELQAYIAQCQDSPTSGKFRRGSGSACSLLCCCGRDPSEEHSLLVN
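Tet-induced TRPML1-DL cells, 1,500 per well, cultured overnight, were loaded with a no-wash Ca2+ dye for 45–90 min. Calcium fluorescence was recorded on the FDSS for 110 s after compound addition, before the EC80 agonist (4 uM 54-4) was added.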
D2 ag: Beta-Arrestin HTS for Positive Allosteric Modulators of the Human D2 Dopamine Receptor: Agonists; AID 624465, 2012; 360,000 tested, 0.084% active; activation, % (concentration not given with the values); DiscoveRx PathHunter D2 beta-arrestin, luminescence, 90 min; 100% = 57 uM dopamine signal; in the data active = activation above about 40%; inconclusive = about 15% to 40%; inactive = below about 15%; further: compound concentration not given in the record; the text of the record calls up to 30% inactive
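DiscoveRx PathHunter D2 beta-arrestin cells (2,100/well) attached overnight, then compound-stimulated 90 min at 37 C in HBSS/10 mM HEPES/0.1% Tween-20 buffer; beta-galactosidase complementation read by luminescence after 1 h at ambient temperature. Dopamine 57 uM final (EC100) as control.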
Six1-Eya2 blk: qHTS Assay for Inhibitors of the Six1/Eya2 Interaction; Homeobox protein SIX1 (Homo sapiens) + Protein phosphatase EYA2 (Homo sapiens), …; AlphaScreen GST-Six1/His-Eya2 binding, biochemical; stronger effect = lower value; control for the full effect not named in the record; activity change, % (test concentration not listed); 360,000 tested, 0.56% active; in the data active = activity change below about -65%; inconclusive = about -30% to -65%; inactive = above about -30%; further: on the % scale 0 is the no-effect control and ±100 the full control effect; compound concentration not given in the record
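GST-Six1 + His-Eya2 (5X stock: 250/500 nM); Tris pH 8.0, 300 mM NaCl, 0.05% BSA, 0.02% Tween 20; GSH donor/Ni acceptor beads; 1 h 37 °C dark; AlphaScreen readout.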
PINK1 modulator: A Quantitative High throughput Screen to Identify Chemical Modulators of PINK1 Expression | PINK1 immunofluorescence, high-content cytometry, 24 h | Potency, µM (doses to about 76.6 µM), for the others: at the top dose activation (PINK1 increase), usual class: activators | 410,000 tested, 0.2% active; active = well fitted activation curve with a large enough effect; inconclusive = small, poorly fitted or top-dose-only effect; inactive = flat fitted curve, though single readings scatter; cell line not stated here;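 further: potency means the concentration at half of the fitted maximal effect; % of control where 0% means no effect; nearly all actives have a fitted effect of over 65% in size; a mitochondrial uncoupler was the plate control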
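Decision-based qHTS: stable cells, 24 h exposure to five compound concentrations, CCCP as control. Fixed cells stained for PINK1 plus nuclear, mitochondrial and cell markers, cytometer read.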
TRPML1 inh: qHTS for Inhibitors of the Human Mucolipin Transient Receptor Potential 1 (TRPML1); activity change, negative = inhibition, % (test concentration not listed); Mucolipin-1 (Homo sapiens), Q9GZU1; 390,000 tested, 0.02% active; AID 624415, 2012; TRPML1-inducible cells, Ca2+ dye fluorescence, FDSS; stronger effect = lower value; inhibition of EC80 agonist-evoked calcium signal; in the data active means activity change below about -50%; inconclusive means about -30% to -50%; inactive means above about -30%;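 further: stimulus is agonist 54-4 at its EC80 concentration; on the % scale 0 is the no-effect control and ±100 the full control effect; compound concentration not given in the record; the text of the record puts the active cut at -80%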
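Calcium fluorescence in TRPML1-DL cells induced overnight with Tet: a 110 s read after compound pin addition, then a 110 s antagonist read after challenge with 54-4 at 4 uM final (EC80).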
* = called active by the depositor; ? = inconclusive; / = not tested or not shown; & = joins results of further samples; [ ] = another dose, or the depositor's remark.

molecule	D2 PAM	TRPML1 agonist	D2 ag	Six1-Eya2 blk	PINK1 modulator	TRPML1 inh
O=c1[nH]c(CN2CCN(C/C=C/c3ccccc3)CC2)nc2ccccc12	-24	0.7	-0.2	-4	-1.9%[38.3 µM]	-19
CCC1=C2CC[C@H]3C(=O)N(c4ccccc4)C(=O)[C@H]3[C@H]2[C@@]2(C)C(=NCC3CC3)OC(=O)N2C1=O	-1	0.9	0.8	-3	3.0%	24
CCN(CC(=O)Nc1ccc(NC(C)=O)cc1)C(=O)Cc1ccc(Cl)c(Cl)c1	-10	0.5	-1.8	-18	-0.6%	27
CC(=O)NC1=NN(C(C)=O)C(C)(c2ccc3ccccc3c2)S1 (configuration not stated)	-10	0.2	-0.2	-2	2.0%	12
CCNCc1cc(OCC)c(OCC(=O)NCCc2ccccc2)cc1Cl	-14	0.3	-1.0	2	-3.0%[38.3 µM]	0
Cn1c(-c2ccccc2)cc(=O)c2ccccc21	9	0.7	-0.7	2	/	5
CCOc1ccc(/C(C)=N/N2C(=O)C(CC(=O)Nc3ccc(OC)cc3[N+](=O)[O-])SC2=Nc2cccc(C)c2C)cc1 (configuration not stated)	-4	-0.4	1.2	2	-0.6%	-2
COC(=O)Cn1ncc2c(C)n(Cc3ccccc3)c(C)c2c1=O	-9	-0.3	-3.7	-2	2.5%	10
COC(=O)c1c(-c2ccc(OC)cc2)sc2ccc(N3CCOCC3)cc12	2	0.9	5.2	-27	0.2%	24
COc1cccc(-c2nn(C)c3sc(C(=O)NCc4ccc(C)cc4)cc23)c1	-26	0.1&0.7	1.3	-16	1.6%&-0.1%	24&-7
C/C(=N/NC(=O)CNC(=O)c1ccco1)c1ccco1	-24	0.2	-3.6	1	0.0%	10
O=[N+]([O-])c1ccccc1N/N=C\c1ccccc1F	-8	1.8	-4.6	-19	1.0%	9
Cc1nn2c(=O)cc(COC(=O)c3cccc(NC(=O)c4ccc(C(C)(C)C)cc4)c3)nc2s1	/	1.7	/	/	-0.5%	-5
COc1ccc(N(CC(=O)NCCc2ccc(OC)c(OC)c2)S(=O)(=O)c2c(C)noc2C)cc1	-2	-0.8	64*	-1	1.8%	-2
CCN(CC)CCCNC(=O)c1c(O)c2c([nH]c1=O)CCCC2	-13	0.3	-3.2	0	/	-17
CSCCC(NS(=O)(=O)c1ccc2c(c1)oc(=O)n2C)C(=O)N1CCN(c2ccc(C(C)=O)cc2)CC1 (configuration not stated)	/	0.3	/	/	1.0%	1
CCCCC1S/C(=N/N=C/c2ccco2)NC1=O (configuration not stated)	-2	2.4	-3.6	13	0.0%	-2
O=C(Cn1cncn1)N/N=C/c1ccccc1Cl	-19	-0.9	-5.3	6	4.3%	-9
O=C(Nc1ccccc1Cl)c1ccc(COc2ccc3c(c2)CCC3)cc1	-5	2.8	1.1	8	16%	16
O=C(Nc1ccccc1)/C(=C/c1ccc2c(c1)OCO2)NC(=O)c1ccco1	-28	-0.6	-5.1	-1	8.5%	-11
CN(C(=O)COc1ccccc1)c1nnc(C23CC4CC(CC(C4)C2)C3)s1	-3	-0.1	-5.4	4	2.7%	20
CN(CC(=O)Nc1cccc2ccccc12)C(=O)c1cccc(S(=O)(=O)N(C)C)c1	-10	/	1.9	2	-0.7%	/
COc1ccc(-c2noc(CNC(=O)c3ccoc3C)n2)cc1	-3	0.0	-2.3	1	4.2%	-29
O=C1OCCN1C(=O)[C@H]1[C@H](c2ccccc2)C(c2ccc(F)cc2)=NN1c1ccc(Br)cc1	/	0.0	0.5	31	0.6%	12
CCN1CCN(C(=O)C2(NC(=O)Nc3ccccc3Cl)CCCCC2)CC1	-11	1.1	-2.3	4	0.5%	5
CCn1c(SCC(=O)c2c(N)n(C3CC3)c(=O)[nH]c2=O)nnc1-c1ccoc1C	1	-1.1	-1.5	1	0.5%	-2
CCC(C)NC(=O)c1c(N)n(/N=C/c2cccnc2)c2nc3ccccc3nc12 (configuration not stated)	1	-0.5	0.1	-1	-8.7%[38.3 µM]	-7
O=C1OCCC1Sc1nnc(-c2ccc(O)cc2)o1 (configuration not stated)	-11	-0.3	0.3	-2	2.5%	9
Cc1cccc(Cc2cnc(NC(=O)CN3C(=O)/C(=C/c4ccccc4)SC3=S)s2)c1	1	0.8	1.5	-5	?	-12
OCC1OC(n2nc3ccccc3n2)C(O)C(O)C1O (configuration not stated)	-12	-0.3	-0.5	0	-1.9%[38.3 µM]	10
O=C(NCc1cnc2ccccn12)C1CCC(=O)N(Cc2ccccc2F)C1 (configuration not stated)	-22	1.0	-6.1	0	2.2%	10
CCCCOc1ccc(OCCNC(=O)c2ccco2)cc1	-2	2.7	9.2	2	2.7%	7
Fc1ccc(Nc2nc3nonc3nc2Nc2cccc(C(F)(F)F)c2)cc1	/	2.3	/	/	?	-4
COc1ccccc1NC(=O)CSc1c2c(nc3ccccc13)CCC2	-10	0.3	0.1	-3	9.5%	4
CC1C(=O)Nc2ccc(S(=O)(=O)N3CCCCC3)cc2NC1=O (configuration not stated)	/	0.7	/	/	1.2%	-8
CC(=O)N1C(=O)NC(c2ccccc2)=C([N+](=O)[O-])C1c1ccccc1 (configuration not stated)	-1	-0.6	3.4	10	-0.5%	2
COc1nc(/C(N)=N/O)nc(N2CCCCC2)n1	2	1.9	-1.9	-5	-1.6%	-5
O=C(CN(c1ccccc1)S(=O)(=O)c1ccccc1[N+](=O)[O-])NN=C1CCCCCCC1	-4	0.2	-2.6	-10	-0.1%[38.3 µM]	8
COCC(C)n1c(SCC(=O)Nc2cccnc2Cl)nc2ccccc2c1=O (configuration not stated)	-5	1.1	-1.4	2	0.7%	-1
O=C(COc1cccc2ccccc12)N/N=C/c1ccncc1	-6	0.1	-1.2	0	3.8%	3

Just TRPML1 inh, Six1-Eya2 blk and D2 ag, for some of the entries so far:
| molecule | TRPML1 inh | Six1-Eya2 blk | D2 ag |
| --- | --- | --- | --- |
| COc1ccccc1NC(=O)CSc1c2c(nc3ccccc13)CCC2 | 4 | -3 | 0.1 |
| Cc1cccc(Cc2cnc(NC(=O)CN3C(=O)/C(=C/c4ccccc4)SC3=S)s2)c1 | -12 | -5 | 1.5 |
| CC1C(=O)Nc2ccc(S(=O)(=O)N3CCCCC3)cc2NC1=O (configuration not stated) | -8 | / | / |
| CCC(C)NC(=O)c1c(N)n(/N=C/c2cccnc2)c2nc3ccccc3nc12 (configuration not stated) | -7 | -1 | 0.1 |

Next section.
canonical_smiles | D2 PAM | TRPML1 agonist | D2 ag | Six1-Eya2 blk | PINK1 modulator | TRPML1 inh
CNc1nc(-c2ccccc2)nc(-c2ccccc2)c1C#N | -10 | -0.7 | -3.1 | 26 | -1.2% | -8
C=CCn1c(=O)/c(=C/c2ccc(O)cc2)s/c1=C(/C#N)c1nnc2n1CCCCC2 | -3 | 21 | -2.3 | -2 | -3.5%[38.3 µM] | 30
CC(=O)c1cn(C)c(=O)n(C)c1=O | 1 | 0.2 | -1.0 | 9 | -0.3% | 20
Cc1ccc(NC(=O)Nc2ccon2)cc1 | -1 | 0.0 | -1.2 | 0 | -0.9% | 7
Cc1ccc(NC(=O)Nc2cnccn2)cc1Cl | -2 | 0.2 | -4.5 | 2 | 0.3% | 3
O=[N+]([O-])c1cccnc1Sc1ccc(Cl)cc1 | 10 | 0.5 | 7.1 | -22 | 5.8% | 43
OCc1nc2ccc(Cl)cc2[nH]1 | -3 | 0.7&-0.2 | -3.0 | 2 | -2.4% | -12
CN(C)C(=C(C#N)C#N)N1CCN(c2ccc(Cl)cc2)CC1 | 6 | 0.8 | -3.2 | 28 | -0.7% | 13
CCOC(=O)c1cc(CC)sc1NC(=O)COC | 3 | 1.3 | 1.4 | 9 | 12%[38.3 µM] | -10
CC1=C(C(=O)Nc2ccccc2)C(c2ccccc2[N+](=O)[O-])NC(=O)N1 (configuration not stated) | -10 | 0.5 | -4.7 | 4 | -1.8% | -21
OC1(c2cccc(C(F)(F)F)c2)CCN(CCN2CCCCC2)CC1 | -9 | 0.5 | -0.2 | 10 | -0.5% | 9
CCN(CC)/C(=N/S(=O)(=O)c1ccc(C)cc1)c1ccccc1 | 8 | 0.0 | -2.0 | -1 | -0.1% | 29
Cc1ccccc1OCCC(=O)Nc1ccccc1C(=O)NC1CC1 | -13 | 0.8 | -0.3 | 6 | 8.7% | 10
NC(=O)[C@@H]1CCCCNc2c(I)cc([N+](=O)[O-])cc2C(=O)N[C@@H](CCC(=O)O)C(=O)N[C@@H](CO)C(=O)N1 | 1 | 0.3 | 2.0 | 0 | 0.6% | 3
CCOC(=O)C1C(=O)N(C(=O)c2cncc(Br)c2)CC1c1ccccc1 (configuration not stated) | -10 | -0.8 | -1.9 | 6 | -0.7% | 30
COc1cc(NC(=S)Nc2cccc(Cl)c2Cl)c(OC)cc1Cl | -34 | 0.0 | -1.0 | -3 | 0.2% | 24
CC(=O)N1N=C(c2c(-c3ccccc3)c3cc(C)ccc3[nH]c2=O)CC1c1ccco1 (configuration not stated) | -6 | -0.1 | -0.2 | -11 | -0.9% | 25
CC(C)c1onc(C(=O)NC2CCCC2)c1[N+](=O)[O-] | -9 | -0.1 | -5.1 | 2 | -0.7% | 18
O=C1CC(c2ccccc2)CC(O)=C1C=NC1CCCC1 (configuration not stated) | -9 | -0.1 | -2.7 | 2 | -0.7%[38.3 µM] | 6
Cc1ccc(S(=O)(=O)N(CC(=O)NCCSc2ccccn2)c2cc(C)cc(C)c2)cc1 | -12 | 0.0 | -6.0 | -3 | -0.4% | -19
Cc1nn(CCC(=O)N2CCN(S(=O)(=O)c3ccc(Cl)cc3)CC2)c(C)c1C | -1 | 0.4 | 2.9 | -4 | -1.5% | 17
CCOc1[nH]n(-c2ccc(Cl)cc2)c(=O)c1C=NCc1cccnc1 | -1 | -1.1 | -2.9 | -1 | 0.1% | -3
CC(C)OP(=O)(OC(C)C)C(NC(=O)c1ccccc1)C(N)=O (configuration not stated) | 0 | 0.0 | 0.8 | -1 | -0.4% | -6
Cc1cc(NC(=O)COC(=O)c2ccc(OC(F)(F)F)cc2)no1 | -12 | -0.7 | -3.8 | 4 | -1.1% | -14
CCS(=O)(=O)Nc1cccc(-c2cc(-c3ccccc3)c3cc(C)ccc3n2)c1 | -20 | 1.8 | -5.5 | -12 | -2.8% | -10

Screens: PubChem BioAssay, National Center for Advancing Translational Sciences (NCATS)
